Screens deposited in PubChem by several laboratories.
Mtb hypoxia rep: reduces hypoxia-regulated biosensor signal in M. tuberculosis; fluorescence inhibition, % (test concentration not listed); 300,000 compounds, 0.1% hits; M. tuberculosis hypoxia-regulated fluorescent reporter, fluorescence; AID 1159583;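 active = 35 to 45% if threefold the growth effect, above 45% if 1.5-fold the growth effect; inactive = the rest, general growth blockers included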;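 note: wells of about 50 µL received 100 nL stock; 0% = vehicle wells and 100% = reference inhibitor wells; whole bacteria with a GFP reporter of the hypoxia response; strong numbers were not always called active; many hits fall short of the cut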
RN4220 kill: kills Staphylococcus aureus RN4220. 330,000 compounds, 0.33% hits. S. aureus RN4220 growth, OD600, 16 h. inhibition, % (test concentration not listed);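 active = z-score of -3 or lower and OD600 up to 0.18 on both plates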;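 note: plate controls were untreated cells for no effect and reference antibiotic for full effect; stock transfer was 100 nL into about 80 µL; one replicate is shown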
ugtP null kill: compounds lethal to S. aureus RN4220 ugtP deletion mutant; OD600 growth, 16 h; some inactives read as strong as hits; growth inhibition, % (concentration not given with the values); 330,000 compounds, 0.54% hits; AID 1259309;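 active = z-score under -3 and OD600 up to 0.15 on both plates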;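 note: plate controls were untreated wells for no effect and antibiotic for full effect; wells of about 80 µL received 100 nL stock; the first replicate is given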
PrP UTR inh: inhibition of PrP 5' UTR reporter expression | cell-based PrP 5' UTR mRNA reporter, plate reader | inhibition, % (concentration not given with the values) | 340,000 compounds, 0.35% hits | AID 488862;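 active = every replicate at 50% or more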;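 note: 0 = median of the neutral control wells; tested in H4 reporter cells; numbers are from one replicate; inactives centre near -14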
BJeLR viability: BJeLR cell viability loss. inhibition, % (no concentration beside the values). 300,000 compounds, 0.17% hits. BJeLR (HRASV12) viability, CellTiter-Glo ATP luminescence, 48 h; reference of the scale not given here;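 active = replicate mean above 50%; inconclusive = above 50% but judged a plate artefact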;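 note: 50 nL library stock added to about 25 µL; numbers are from one replicate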
Autofluor counter: counter-screen for toxin protease inhibitors: compound fluorescence | compound autofluorescence counterscreen, microsphere flow cytometry; stronger effect = higher value | fluorescence intensity (concentration not given with the values) | 360,000 compounds, 3.1% hits | AID 624483;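 active = at least 3 SD above the mean of all compounds, about 16000 in these data; inconclusive = too few beads counted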;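 note: 100 nL of 1 mM stock went into each well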
Mtb hypoxia rep growth: recorded beside Mtb hypoxia rep, whose call it bears; growth inhibition, %; measured here: M. tuberculosis growth (absorbance);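 0% = vehicle and 100% = reference antibiotic; read after six days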
An asterisk follows results filed as active; ? = inconclusive; nt = no result given.

SMILES	Mtb hypoxia rep	Mtb hypoxia rep growth	RN4220 kill	ugtP null kill	PrP UTR inh	BJeLR viability	Autofluor counter
Cn1c(NC(=O)/C=C/c2ccco2)cc(=O)n(C)c1=O	3	-3	6.6	4	-18	-9	2589
O=S(Cc1cc(Oc2ccccc2)nc(-c2ccccc2)n1)c1ccccc1 (configuration not stated)	nt	nt	-5.1	10	-18	3	2868
COc1ccc(-c2nc(CN3CCC(C(=O)NC4CCCc5ccccc54)CC3)c(C)o2)cc1OC (configuration not stated)	-8	0	4.6	16	7	nt	4552
COc1ccccc1/C=N/NC(=O)C(=O)N1CCN(c2ccccc2OC)CC1	nt	nt	nt	nt	-15	4	2089
CCOC(=O)C1CCN(C(=O)c2cn(C)c(=O)c3cc(OC)c(OC)cc23)CC1	7	5	5.0	-2	-8	-1	3399
CN1C(=O)NC(NC(=O)c2cccs2)(C(F)(F)F)C1=O (configuration not stated)	4	-6	0.6	2	-20	-5	9064
O=C1c2ccccc2C(=O)N1CCCOCc1c[nH]c(=O)[nH]c1=O	13	1	5.4	-4	-5	5	?
O=C1OCCC1Sc1nc2ccccc2n1Cc1ccccc1 (configuration not stated)	17	5	0.8	2	-4	-7	5010
Cn1c(=Nc2ccccc2)sc2ccccc21	13	2	3.2	26	-18	-9	7380
O=C(NNC(=S)Nc1ccccc1)c1ccc(O)cc1	6	4	0.4	9	-74	3	4123
C=C(C)C1CC=C(C)C(=NNC(=O)c2ccc(NC(=O)CCC)cc2)C1 (configuration not stated)	5	0	3.5	-2	nt	nt	nt
O=C(Nc1ccc2c(c1)OCCO2)C1CCN(S(=O)(=O)Cc2ccccc2)CC1	nt	nt	3.2	13	-27	-1	2625
C=CCC1(Cl)C(=O)C(Cl)=C(N2CCOCC2)C1(OC)OC (configuration not stated)	18	0	4.5	13	-22	18	5861
Cn1c(CNC(=O)c2ccc(Cl)c(Cl)c2)nnc1SCC(=O)Nc1sc2c(c1C#N)CCCC2	-2	3	12	-3	-13	0	5195
OCCN1CCN(c2nc(-c3ccccc3O)nc3ccccc23)CC1	-1	1	-2.5	-1	nt	-1	3044
FCCCOc1ccc(-c2nccc(-c3ccc(F)cc3)n2)cc1	nt	nt	0.2	29	-68	3	2364
N#Cc1ccc(CN2C=NS(=O)(=O)c3ccccc32)cc1	15	3	-2.1	-1	-10	-5	2906
C/C(=N\NC(=O)c1ccncc1)c1c(O)n(Cc2ccccc2)c(=O)[nH]c1=O	1	4	0.5	6	-9	3	3506
O=C(NCc1cc(C(F)(F)F)ccc1F)C1CCC(=O)N(C2CCCCCC2)C1 (configuration not stated)	10	2	-0.1	10	-9	-14	5481
O=C(NCCCCc1ccccc1)c1ccccc1F	nt	nt	5.9	13	-21	-7	3634
CCCC(=O)Nc1ccc(C(=O)COC(=O)c2c(C)noc2C)cc1	7	-9	-2.9	11	-5	nt	5830
O=C(CSc1n[nH]c(=O)n1-c1ccccc1)Nc1ccccc1	7	-9	-1.4	7	nt	-15	nt
CCCCn1c(N)c(N(CC(C)C)C(=O)c2cc(S(=O)(=O)N3CCOCC3)ccc2Cl)c(=O)[nH]c1=O	6	14	1.2	4	-1	-5	6003
Cc1ccc(NS(=O)(=O)c2cn(C)c(=O)n(C)c2=O)cc1C	6	6	-13	-4	-13	18	6885
CCC(C)(C)NC(=O)c1cc([N+](=O)[O-])ccc1N1CCCCC1	-9	1	-2.5	1	-38	-2	2223

(next part)
SMILES	Mtb hypoxia rep	Mtb hypoxia rep growth	RN4220 kill	ugtP null kill	PrP UTR inh	BJeLR viability	Autofluor counter
CCCCn1nc(C(=O)NCC(=O)Nc2c(C)cccc2C)c2ccccc2c1=O	3	0	-1.5	7	-15	nt	3675
O=C(O)c1ccc(NN=Cc2ccnc3ccccc23)cc1	8	-3	11	-1	nt	nt	nt
CC(C)(CN1CCNCC1)NS(=O)(=O)c1ccc(Cl)cc1	23	30	1.5	10	-10	nt	6500
Cc1cc(SCC(=O)c2cccs2)nc2c(C)cccc12	10	11	5.5	17	-4	2	16902*
O=C(NC1CC1)C1=C[C@H](c2ccc3c(c2)OCO3)C[C@H](OCc2ccc(CO)cc2)O1	nt	nt	nt	nt	-10	-2	4062
CCN(CC)S(=O)(=O)c1ccc(N/N=C/c2cc(OC)c(OC)cc2OC)nc1	nt	nt	nt	nt	-6	2	2296
COc1ccc(S(=O)(=O)Nc2cccc(SC)c2)cc1OC	-2	5	6.8	0	-17	3	9467
COc1nc(OCC#N)nc(N(C)C)n1	10	8	5.2	0	-23	-11	3473
Fc1cccc(C=Nn2c(C3CCCCC3)n[nH]c2=S)c1	5	8	5.4	-14	nt	nt	nt
CCN(CC)C(=O)C1CC(=O)N(c2ccc(F)c(Cl)c2)C1 (configuration not stated)	13	9	16	9	-19	-2	2947
CC(C)(C)c1ccc(S(=O)(=O)Nc2noc3ccccc23)cc1	7	-4	21	9	-16	-3	3257
CCOC(=O)C1=C(CS(=O)(=O)c2ccccc2)NC(=O)NC1c1ccc(O)c(OC)c1 (configuration not stated)	9	3	2.1	7	-13	-12	4634
Cc1nc2cc(NC(=O)c3cccc(S(C)(=O)=O)c3)ccc2o1	12	3	2.0	6	-27	3	3732
CC12CCC(C(=O)N(CC(=O)O)C1=O)C2(C)C (configuration not stated)	10	9	1.5	-1	-27	-11	4705
Cc1ccc(Nc2c(O)nc[nH]c2=O)cc1	19	10	4.1	-8	-16	nt	4135
Cc1cccc(C)c1NC(=S)N(CCN(C)C)C(C)c1cccnc1 (configuration not stated)	6	-5	-0.3	5	11	-11	3451
O=C1CCCN1CCC(=O)N1CCCC(Nc2ccc(F)c(F)c2)C1 (configuration not stated)	nt	nt	nt	nt	-17	-1	5836
CN(CC(=O)Nc1cccnc1Cl)S(=O)(=O)c1ccc(Cl)cc1	10	-7	1.5	2	-5	-2	?
Cc1ccc(S(=O)(=O)N(C(=O)c2ccncc2)c2ccc(OC(=O)c3ccncc3)c3ccccc23)cc1	3	4	19	3	-31	-4	2182
Cc1ccc(OCC(=O)N/N=C2/SCC(=O)N2Cc2ccco2)cc1	nt	nt	nt	nt	-9	0	4137
CCOC(=O)c1c(-n2cnnn2)sc2c1CCCC2	9	8	6.7	4	-23	-7	5469
O=C(Nc1ccc2c(c1)OCO2)c1cnn2cccnc12	16	6	2.2	8	-57	4	4961
Cc1ccc(C(=O)NN2C(=O)CSC2=S)cc1	nt	nt	nt	nt	-10	-10	2424
CC(NC(=O)C(=O)NN=C1CCCC1)c1ccccc1 (configuration not stated)	12	12	8.9	3	-33	6	5928
Nc1cc2sc(-c3ccc(C(=O)O)cc3)nc2cc1Cl	nt	nt	nt	nt	3	41	10293

(more compounds)
SMILES	Mtb hypoxia rep	Mtb hypoxia rep growth	RN4220 kill	ugtP null kill	PrP UTR inh	BJeLR viability	Autofluor counter
Cc1ccc2cc(NC(=O)c3ccc(C(C)(C)C)cc3)ccc2n1	-1	8	22	10	-7	-13	3828
O=C(/C=C/c1cccs1)NC(=S)Nc1ccc(C(=O)O)cc1	nt	nt	nt	nt	-6	-3	4042
CS(=O)(=O)Nc1ccc(C(=O)NCCc2ccccc2)cc1	8	10	3.3	8	-40	-10	nt
COc1ccccc1OCC(=O)NNC(=O)c1ccoc1C	-11	-7	6.4	6	-34	8	2377
COc1ccc(S(=O)(=O)NNc2nc(C)cc(C)n2)cc1Br	nt	nt	nt	nt	-14	-8	?
C/C(=N\NC(=O)Cc1ccccc1)c1ccc(Cl)s1	nt	nt	nt	nt	-15	8	5357
O=S(=O)(Nc1ccc2ccccc2n1)c1ccccc1Cl	1	-4	5.0	7	-5	-6	5596
COc1ccccc1/C=C(/CC(=O)NCc1ccc(F)cc1)c1nc2ccccc2s1	9	10	-2.0	10	-15	-2	2203
CCN(CC)c1ccc(CN2CCCCCC2)cc1	nt	nt	nt	nt	-24	4	3576
O=C(NCCS(=O)(=O)c1ccc(Br)cc1)c1ccc(Cl)cc1Cl	3	-2	1.7	8	5	-4	4712
COc1ccc(-c2nc3ccccn3c2NC2CCCCC2)cc1SC1CCCCC1	15	4	84	100*	-22	3	3539
O=C(NCCCc1ccncc1)C1CCC(=O)N(Cc2ccc(Cl)cc2)C1 (configuration not stated)	6	3	-4.5	3	-8	-2	4625
O=C(c1cccs1)N1CCN=C1SCc1cccc(F)c1	0	-1	14	-2	9	2	4558
CC(C)(C)NC(=O)C1CCN(C(=O)c2ccc(-c3ccccc3)cc2)CC1	4	15	-5.4	-10	1	3	3153
Cc1ccsc1CN(C)C(=O)CN1C(=O)NC2(CCCc3ccccc32)C1=O (configuration not stated)	-7	3	-1.9	-6	-14	nt	3773
O=C(NN1C(=O)c2ccccc2NC1c1ccccn1)c1ccccc1 (configuration not stated)	-6	-8	3.6	3	-11	-5	10568
CC(Sc1nnc(C(F)(F)F)n1C)C(=O)NC(N)=O (configuration not stated)	4	8	-4.3	-4	-6	10	5392
CCOc1ccccc1NC(=O)CN1C(=O)COc2ccc(Cl)cc21	nt	nt	1.5	-14	0	-13	4618
COc1cccc(C2CC(C(F)(F)F)n3ncc(C(=O)NC(C)(C)C)c3N2)c1 (configuration not stated)	1	5	6.2	3	-7	0	4388
COCC(=O)Nc1ccccc1Br	13	5	4.3	6	-8	1	2036
CCc1ccc(NC(=O)C2CCCN2S(=O)(=O)c2ccc3c(c2)C(C)(C)C(=O)N3C)cc1 (configuration not stated)	nt	nt	1.1	3	-10	-2	6288
